MT1-MMP act inh: MT1-MMP (human) activation inhibition | P50281 | HT1080 RFP-PRO-GFP cells, GFP/RFP ratio fluorescence, overnight; percent of plate control window, DMSO zero | GFP/RFP ratio change, % at 20 µM | 0.061% of 360,000 active;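 active = GFP/RFP ratio change of at least 30% with cell ATP level not reduced by more than half and red fluorescence within 50% of control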; also: strong numbers were not always called active
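Assay system: HT1080 cells carrying an RFP-PRO-GFP reporter | Dosing: Single dose of 20 µM compound, 1% DMSO final | Incubation: Cells overnight before dosing, compound overnight, 37 °C, 5% CO2 | Evaluation: GFP/RFP fluorescence ratio | Control set: DMSO and RFP-L50D-GFP cell wells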
eIF4H FP inh: inhibitors of RNA binding by human eIF4H; inhibition, % at 35 µM; AID 2012; Q15056; 0.94% of 290,000 active; eIF4H fluorescence polarization binding assay;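 active = 50% or more with normal probe brightness, or confirmed in later tests; inconclusive = above 50% with abnormal brightness, or retests that disagree; inactive = below 50% or failed in later tests; about a fifth of its hits are not listed in these tables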;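 also: calls also rest on retests at 20 µM and on dose response follow-up; 0% = protein and probe with vehicle and 100% = probe without protein; strong numbers were not always called active; many hits fall short of the cut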
PABP polyA inh: blocks human PABP binding to poly(A) RNA. 1% of 290,000 active. inhibition, % at 35 µM. AID 2014. fluorescence polarization;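 active = 50% or more with normal probe brightness, or confirmed in later tests; inconclusive = above 50% with abnormal brightness, or retests that disagree; inactive = below 50% or failed in later tests; about a fifth of its hits are not listed in these tables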;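 also: calls also rest on retests at 20 µM and on dose response follow-up; controls were probe without protein and protein plus probe with vehicle; some compounds called inactive have numbers as strong as hits; many hits fall short of the cut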
CSC inhib: blocks cancer stem cells. cancer stem cell-like cells viability, luminescence. inhibition, % at 7.5 µM. 1.1% of 300,000 active. AID 2717;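 active = mean at 75% or more and at least half the replicates too; inconclusive = mean and replicates disagree; tested in HMLE shEcad cells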;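 also: 0% = median of negative and 100% = median of positive control wells; the first replicate is given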
UUG fidelity: modulators of start codon recognition fidelity in yeast; S. cerevisiae UUG-firefly luciferase reporter, luminescence/redox ratio; activity score, % at 18.7 µM; 0.13% of 350,000 active;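 active = replicate mean at a twofold rise or more, about +100% in these data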;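 also: firefly luciferase made from a UUG start codon reports start codon fidelity; reporter light over untreated wells divided by growth signal over untreated wells; some hits fall short of that in this replicate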
HIV Env fusion: inhibitors of HIV Env-mediated cell fusion; 1.1% of 360,000 active; HeLa-JRFL Env/CEM21 cell fusion, luciferase; AID 651610; inhibition, % at 12.3 µM;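 active = mean replicate inhibition score of at least 50 and every replicate individually at or above 50; inconclusive = only one of the two criteria met; inactive = mean below 50 and not all replicates reaching 50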;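 also: 0% = plate neutral controls and 100% = maraviroc near 300 nM; one replicate is shown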
Rce1 inhib: inhibitors of yeast Ras-converting enzyme; Q03530; yeast membranes, quenched prenylated peptide cleavage fluorescence; calls only; 0.27% of 290,000 active;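 active = fall in fluorescence gain of 50% or more versus controls, with final raw signal at or below 3038400; inconclusive = same 50% fall but final raw signal above 3038400; inactive = fall in fluorescence gain under 50%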;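 also: plate controls were neutral control wells for no effect and wells lacking membranes for full effect; tested at 10 µM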
Target sequence (Q03530 whole entry, looked up): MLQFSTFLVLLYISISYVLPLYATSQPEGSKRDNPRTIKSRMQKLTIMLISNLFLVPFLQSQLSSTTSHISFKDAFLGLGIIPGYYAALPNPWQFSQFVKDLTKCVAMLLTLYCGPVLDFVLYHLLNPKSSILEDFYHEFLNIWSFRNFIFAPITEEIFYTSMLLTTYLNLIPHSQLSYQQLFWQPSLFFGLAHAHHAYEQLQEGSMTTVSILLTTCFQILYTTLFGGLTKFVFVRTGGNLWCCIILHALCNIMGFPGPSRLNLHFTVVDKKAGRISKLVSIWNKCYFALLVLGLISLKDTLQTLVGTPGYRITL
eIF4H FP inh retest: further read-out of eIF4H FP inh, marked with its call; inhibition, %; compound at 20 µM; confirmation average;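 mean of two retest wells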
PABP polyA inh retest: also measured in PABP polyA inh; calls as there; inhibition, %; compound at 20 µM; confirmation repeats;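 mean of two retest wells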
MT1-MMP act inh RFP: second read-out of MT1-MMP act inh, no call of its own (marks repeat the call); RFP signal change, %; measured here: RFP expression control read;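 0 = vehicle wells; hits needed this value within 50% of zero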
Active calls of the source: *; i = inactive; ? = inconclusive; · = not tested or not shown. Some of the compounds tested (hit frequency here may not be typical).

SMILES	MT1-MMP act inh	MT1-MMP act inh RFP	eIF4H FP inh	PABP polyA inh	CSC inhib	UUG fidelity	HIV Env fusion	Rce1 inhib	others
COCCNC(=S)Nc1ccccc1Cc1ccccc1	3	6	-6	1	-16	·	7	i
Cc1cc2cc(CNC(=O)c3cccs3)ccc2[nH]1	4	33	1	3	9	-5	4	i
CCOC(=O)Cn1c(=O)c2c(nc(Br)n2Cc2ccccc2Cl)n(C)c1=O	-2	5	4	5	28	7	5	i
CC1(C)CC(=O)C2=C(C1)OC1OC(=O)CC21C (stereo not given)	4	7	-11	-2	-2	·	-16	·
Nc1nc(Nc2ccccc2F)nc(NCCO)c1[N+](=O)[O-]	-1	0	-8	-2	10	3	-23	i
O=C(Nc1nnc(C2CC2)s1)c1n[nH]c(=O)c2ccccc12	-2	5	1	5	-5	-18	-19	i
CC1CCCCN1C(=O)COC(=O)c1cccc(NS(=O)(=O)c2ccccc2)c1 (stereo not given)	-5	-6	·	·	2	-3	-2	i
CC(=O)Nc1ccc(S(=O)(=O)NCCC(=O)NC(C)c2cccs2)cc1 (stereo not given)	1	0	·	·	-8	·	-13	·
CC(NC=C1C(=O)OC(C)(C)OC1=O)C(=O)O (stereo not given)	-1	1	-2	7	-17	-5	-52	i
C=C1C(=O)[C@@]23[C@H](O)C[C@@H]4C(C)(C)CC[C@H](O)[C@]4(C)[C@@H]2C[C@H](O)[C@@H]1[C@H]3O	-3	-19	-4	3	57	-10	31	i
O=C(CSc1nnc(-c2ccco2)n1Cc1ccccc1)NC(=O)NCc1ccco1	1	-3	0	6	-9	-12	·	i
CC(=O)N1CC2(CC(c3ccc(Cl)cc3Cl)=NO2)CN1c1cccc(Cl)c1 (stereo not given)	-1	-4	·	·	·	1	-30	·
COC(=O)C1C2C=CC3(CN(c4ccc(Cl)c(F)c4)C(=O)C13)O2 (stereo not given)	-1	2	-4	8	-10	-12	-76	i
COc1cccc(-c2cc(C(=O)O)no2)c1	-7	12	1	2	-5	-6	-13	i
COc1ccc([C@@H]2C[C@H]3CN(c4ccccc4)C(=O)[C@]34CCCN24)c(OC)c1OC	-3	2	-1	4	-12	·	23	i
COc1ccc(OC)c(N(/C(N)=N/c2nc(C)cc(C)n2)S(=O)(=O)c2ccc(NC(C)=O)cc2)c1	3	0	-4	-2	13	-21	5	i
CC(SCc1ccccc1)C(=O)NCc1ccccn1 (stereo not given)	1	3	-9	-7	·	·	5	i
N#Cc1c(-c2ccccc2)cc(C2CC2)nc1SCC(=O)c1cccs1	-39	-11	0	-4	·	-10	·	i
CCN(CC(=O)NCc1cccs1)C(=O)c1ccc(S(=O)(=O)N(C)c2ccccc2)cc1	3	3	·	·	-19	1	0	·
COc1cccc(C=NCC(C)N=Cc2cccc(OC)c2O)c1O (stereo not given)	0	4	25	19	-3	·	12	i
Cc1c(C(=O)Nc2c(F)cc(F)cc2Br)sc2ncn(CC(=O)N3CCCC3)c(=O)c12	-3	-5	0	7	5	-16	-1	i
CCCc1nc(SCC(=O)Nc2ccccc2OC)c2c(=O)n(C)c(=O)n(C)c2n1	-13	-14	-10	-8	8	-8	-1	i
CC(=O)Nc1ccc(NC(=O)c2c(C)noc2C)cc1	-1	-1	-8	0	13	1	25	i
O=C(O)[C@@H]1[C@@H]2C[C@@H]2CN1c1ncccc1[N+](=O)[O-]	3	2	?	?	·	-10	5	i
NC(=O)c1c(NC(=O)c2ccncc2)sc2c1CCCCCC2	-1	-21	-3	-2	5	-9	2	i

13 structures out of the list, ordered by number of heavy atoms, low to high.
SMILES	MT1-MMP act inh	MT1-MMP act inh RFP	eIF4H FP inh	PABP polyA inh	CSC inhib	UUG fidelity	HIV Env fusion	Rce1 inhib	others
COc1cccc(-c2cc(C(=O)O)no2)c1	-7	12	1	2	-5	-6	-13	i
CC(NC=C1C(=O)OC(C)(C)OC1=O)C(=O)O (stereo not given)	-1	1	-2	7	-17	-5	-52	i
CC(SCc1ccccc1)C(=O)NCc1ccccn1 (stereo not given)	1	3	-9	-7	·	·	5	i
COCCNC(=S)Nc1ccccc1Cc1ccccc1	3	6	-6	1	-16	·	7	i
O=C(Nc1nnc(C2CC2)s1)c1n[nH]c(=O)c2ccccc12	-2	5	1	5	-5	-18	-19	i
NC(=O)c1c(NC(=O)c2ccncc2)sc2c1CCCCCC2	-1	-21	-3	-2	5	-9	2	i
C=C1C(=O)[C@@]23[C@H](O)C[C@@H]4C(C)(C)CC[C@H](O)[C@]4(C)[C@@H]2C[C@H](O)[C@@H]1[C@H]3O	-3	-19	-4	3	57	-10	31	i
CC(=O)N1CC2(CC(c3ccc(Cl)cc3Cl)=NO2)CN1c1cccc(Cl)c1 (stereo not given)	-1	-4	·	·	·	1	-30	·
CC1CCCCN1C(=O)COC(=O)c1cccc(NS(=O)(=O)c2ccccc2)c1 (stereo not given)	-5	-6	·	·	2	-3	-2	i
COc1ccc([C@@H]2C[C@H]3CN(c4ccccc4)C(=O)[C@]34CCCN24)c(OC)c1OC	-3	2	-1	4	-12	·	23	i
O=C(CSc1nnc(-c2ccco2)n1Cc1ccccc1)NC(=O)NCc1ccco1	1	-3	0	6	-9	-12	·	i
CCN(CC(=O)NCc1cccs1)C(=O)c1ccc(S(=O)(=O)N(C)c2ccccc2)cc1	3	3	·	·	-19	1	0	·
COc1ccc(OC)c(N(/C(N)=N/c2nc(C)cc(C)n2)S(=O)(=O)c2ccc(NC(C)=O)cc2)c1	3	0	-4	-2	13	-21	5	i

New compounds follow:
SMILES	MT1-MMP act inh	MT1-MMP act inh RFP	eIF4H FP inh	PABP polyA inh	CSC inhib	UUG fidelity	HIV Env fusion	Rce1 inhib	others
OCC1(CCc2ccccc2)CCN(Cc2ccc(OC(F)F)cc2)CC1	0	2	11	0	·	-14	-11	·
COC(=O)CCCC(=O)N1CCCC(C(=O)c2ccccc2SC)C1 (stereo not given)	0	1	-3	16	-4	1	5	i
O=C(c1ccc(-n2cccn2)cc1)N1CCN(c2ncccc2C(F)(F)F)CC1	4	-1	-4	9	1	5	·	i
O=c1[nH]c2ccccc2c(O)c1-c1ccccc1[N+](=O)[O-]	5	6	-8	6	-8	·	-15	i
CCOc1nc(-c2ccc(OC)cc2)ccc1-c1noc(-c2ccncc2)n1	-2	2	-4	2	·	-8	0	·
O=C(CSCc1ccccc1Cl)N1CCN(c2ccccn2)CC1	1	-2	5	-6	-4	-5	·	i
CCOC(=O)CC1(c2ccccc2)CCOC(C)(C)C1 (stereo not given)	5	7	-5	-3	-5	-3	-40	i
CCOC(=O)C(C)Oc1cccc2c(=O)n(CC(=O)Nc3ccc4c(c3)OCCO4)ccc12 (stereo not given)	-3	3	3	7	-20	15	-1	i
COc1ccc(CNC(=O)CN(c2ccc(C)cc2)S(=O)(=O)c2c(C)nn(C)c2C)cc1	1	-4	3	4	5	-18	6	i
CCN1CCC2(CC1)N=C(c1ccc(F)cc1)C(=S)N2	0	-2	4	-10	10	·	8	i
COCCNC(=O)c1cc(S(=O)(=O)N2CCOCC2)ccc1SCc1cccc(OC)c1OC	-1	2	2	-8	-1	-37	3	i
CC(C)[C@@H](CO)N(C)S(=O)(=O)c1ccccc1Br	3	4	·	·	·	-16	-43	·
Cc1cc2nc(C3CCN(CC4COc5ccccc5O4)CC3)[nH]c2cc1C (stereo not given)	12	-8	-11	-2	·	-18	·	i
CCN(CC)c1ccc(NC(=O)c2ccc(Cl)nc2)cc1	-9	-9	-4	4	·	-8	-141	i
CSCCC(NC(=O)c1cccc(C)c1)C(=O)Nc1sccc1C(N)=O (stereo not given)	1	1	0	14	5	-4	-18	i
CO[C@H]1CN(C)C(=O)c2cc(NC(=O)C3CCOCC3)ccc2OC[C@H](C)N(Cc2nccs2)C[C@H]1C	-1	5	·	·	·	0	74*	·
CCOC(=O)Cn1nc(C)n(-c2ccc(F)cc2)c1=O	-3	1	6	-6	3	0	-11	i
Cc1ccc(/C=N/NC(=O)C2COc3ccccc3O2)s1 (stereo not given)	-1	-11	·	·	21	9	-40	i
Cc1cccc(C(=O)NCC(c2ccc(F)cc2)N2CCOCC2)c1 (stereo not given)	-2	0	-2	0	2	-9	-13	i
O=C(CN1C(=O)c2ccccc2C1=O)Nc1ccccc1C(=O)NC1CCCCCC1	5	3	-7	-16	-4	5	·	·
COc1cc(OC)c(OC)cc1/C=C1\CCC/C(=C\c2cc(OC)c(OC)cc2OC)C1=O	-48	-11	-5	-23	·	-8	-1	i
Cc1ccc(OCC(=O)N2CCOCC2)cc1C	-2	3	-6	-6	-8	-28	-14	i
OCC1OC(Oc2cccc3ccccc23)C(O)C(O)C1O (stereo not given)	5	6	1	-1	1	-6	-8	i
CCc1ccc2[nH]c(C(=O)Nc3ccc(F)cc3Br)cc2c1	-4	2	-9	0	-5	1	17	i
O=C1c2cccc3cccc(c23)N1Cc1cccc(F)c1	1	3	-4	-3	-2	-14	11	i

(next part)
SMILES	MT1-MMP act inh	MT1-MMP act inh RFP	eIF4H FP inh	PABP polyA inh	CSC inhib	UUG fidelity	HIV Env fusion	Rce1 inhib	others
Cc1noc(-c2ccccc2)c1NC(=O)Nc1ccccc1	2	4	-4	-11	-22	·	-37	·
COc1ccc(C2c3[nH]c4ccccc4c3CCN2CCCn2cccn2)c(F)c1 (stereo not given)	1	2	-7	10	5	13	2	i
CCc1ccc(-c2ccc3nnc(SCC(=O)NCC4CCCO4)n3n2)cc1 (stereo not given)	-5	-1	·	·	·	1	-2	i
COc1ccc(-n2nc3c(N4CCC(C(=O)NC5CCCCC5)CC4)nnc(C)c3c2C)cc1	-7	-3	·	·	5	2	·	i
Cc1nn(Cc2ccc(F)cc2)c(C)c1NC(=O)c1cnn2cccnc12	-4	-2	-6	-3	-20	-10	·	i
O=C(NCc1ncc(C(F)(F)F)cc1Cl)Nc1ccccc1	-1	-4	3	4	-5	-16	-7	i
COc1ccc(C(CNC(=O)Cc2ccccc2)N2CCCCC2)cc1 (stereo not given)	-1	0	7	-6	·	-5	-2	i
CN(c1cnn(-c2ccccc2)c(=O)c1Cl)n1cccc1	-2	-1	-8	-8	-7	-3	-8	i
Cc1nc2[nH]onc2c2nccc(=O)c12	-4	2	4	0	-8	-3	19	i
CCN(CC)S(=O)(=O)c1ccc(C)c(NC(=O)CN2CCN(Cc3ccccc3)CC2)c1	7	-1	2	-4	-8	·	14	i
CC(=NC1CCCC1)c1c(C)[nH]n(-c2nc3ccccc3s2)c1=O	-21	-10	53	-4	-8	-31	-206	i	eIF4H FP inh retest=5;PABP polyA inh retest=-13
O=C(NCc1ccccc1Cl)C1CCCN(c2nc3ccsc3c(=O)s2)C1 (stereo not given)	·	·	-10	-9	-19	·	·	i
CCOC(=O)c1cnc2ccc(OC)cc2c1NCCN1CCOCC1	-4	-5	6	-5	4	-13	-8	i
CCOC(=O)CSc1nnc(-c2ccccc2OC)o1	4	8	-1	0	-6	3	·	i
O=C(CCc1c[nH]c2ccccc12)N=Nc1c(O)[nH]c2ccccc12	5	2	-4	-2	4	-9	-23	i
O=C(CSC(=S)N1CCCCC1)Nc1ncc2c(n1)CC(c1ccco1)CC2=O (stereo not given)	2	2	7	0	5	-10	15	i
COCCCNC(=O)C1CC(=O)N(CCc2ccccc2)C1 (stereo not given)	0	0	-9	7	-6	-13	-77	i

Compound activity: PubChem BioAssay, several laboratories
